Screening data: PubChem BioAssay, National Center for Advancing Translational Sciences (NCATS)
TRPML1 blocker – inhibitors of human TRPML1 channel. Q9GZU1. TRPML1-inducible cells, Ca2+ dye fluorescence, FDSS; hits give low values; inhibition of EC80 agonist-evoked calcium signal. activity change, negative = inhibition, % (concentration not given with the values). 390,000 compounds, 0.02% hits; in the data active means activity change below about -50%; inconclusive means about -30% to -50%; inactive means above about -30%;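 further: stimulus is agonist 54-4 at its EC80 concentration; on the % scale 0 is the no-effect control and ±100 the full control effect; the text of the record puts the active cut at -80%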
Target sequence (Q9GZU1 whole entry, looked up): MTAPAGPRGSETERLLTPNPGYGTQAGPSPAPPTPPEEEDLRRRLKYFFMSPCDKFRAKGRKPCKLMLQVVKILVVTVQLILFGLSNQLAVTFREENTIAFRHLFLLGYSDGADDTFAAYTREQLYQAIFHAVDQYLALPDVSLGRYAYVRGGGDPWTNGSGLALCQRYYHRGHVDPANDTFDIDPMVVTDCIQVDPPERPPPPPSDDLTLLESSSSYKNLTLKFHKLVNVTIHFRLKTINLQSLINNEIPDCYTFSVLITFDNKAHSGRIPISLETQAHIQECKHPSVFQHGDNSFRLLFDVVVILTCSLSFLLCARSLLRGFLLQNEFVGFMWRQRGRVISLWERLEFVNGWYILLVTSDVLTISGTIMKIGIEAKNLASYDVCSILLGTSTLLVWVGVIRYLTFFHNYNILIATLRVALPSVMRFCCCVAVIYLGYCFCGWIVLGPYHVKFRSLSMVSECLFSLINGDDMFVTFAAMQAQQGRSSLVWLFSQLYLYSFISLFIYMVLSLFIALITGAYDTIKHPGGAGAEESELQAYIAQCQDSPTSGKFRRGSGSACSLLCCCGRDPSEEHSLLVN
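TRPML1-DL cells, Tet-induced overnight (~16 h, 37 °C) at 1,500 cells/well, were loaded with Ca8 no-wash dye plus quencher for 45-90 min at room temperature. Compounds were pinned during FDSS kinetic reading; agonist 54-4 at EC80 (4 uM final) then added.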
Menin-MLL FL inh – menin-MLL binding inhibition, fluorescein peptide; Fluorescence polarization, fluorescein-MLL peptide displacement from menin; FP activity change, % at 61.4 µM; 290,000 tested, under 10 active; AID 1766; inconclusive = falling polarisation curve, or a change in total fluorescence; inactive = total fluorescence flat and polarisation flat or rising; no compound was filed as active; the % refers to the polarisation; negative = inhibition;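 further: % of control where 0% means no effect; inhibitors lower the polarisation; unlabelled MLL peptide was the positive control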
ClpP mod – qHTS Assay for Activators of ClpP; ATP-dependent Clp protease proteolytic subunit (Bacillus subtilis (strain 168)), P80244; purified B. subtilis ClpP, FRET peptide cleavage, 20 min; Potency, µM (titrated, usually from 57.5 µM), for the others: at the top dose activity change, negative = active; 340,000 compounds, 1.9% hits; AID 651965, 2013; active = well fitted falling curve with a large enough effect; inconclusive = small, poorly fitted or top-dose-only effect; inactive = no such curve, though single readings can be large or run the other way; further: potency means the concentration at half of the fitted maximal effect; the source files actives as falling curves though it sought activators and does not explain the sign; nearly all actives have a fitted effect of over 65% in size; many hits overshoot -100%
Target sequence (P80244 whole entry, looked up): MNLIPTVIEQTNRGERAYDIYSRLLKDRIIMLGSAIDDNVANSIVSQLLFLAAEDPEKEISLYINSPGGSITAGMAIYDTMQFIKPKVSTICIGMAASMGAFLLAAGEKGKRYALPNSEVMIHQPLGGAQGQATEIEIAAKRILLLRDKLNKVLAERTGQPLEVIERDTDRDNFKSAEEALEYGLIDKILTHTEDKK
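FRET quenching reversal measured ClpP activation: 10 microg/mL B. subtilis ClpP at pH 8 with the FRET-FV decapeptide, read at 430 nm after 320 nm excitation. The 20-min minus 0-min signal was scaled between DMSO/no-enzyme wells and ADEP (5.8 microM final).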
TRPML1 ag – human mucolipin-1 channel agonism | AID 624414 | TRPML1-expressing cells, Ca2+ dye fluorescence, FDSS; host cell line not named in the record; reference of the full effect not given here | activation, % (no concentration beside the values) | 410,000 compounds, 0.12% hits | Q9GZU1; in the data active = activation above about 50%; inconclusive = about 30% to 50%; inactive = below about 30%; further: 0% is about no effect; the text of the record puts the active cut at 80%
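Kinetic FDSS Ca2+ read in Tet-induced TRPML1-DL cells (ABD Ca8 dye plus quencher, 45-90 min RT loading): baseline, then compound, then 110 s agonist window; EC80 agonist 54-4 at 4uM final added afterwards for a 110 s antagonist window.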
Sfp PPTase inh – Sfp phosphopantetheinyl transferase inhibition. Q9F4F7. Biochemical Sfp PPTase activity, qHTS. Potency, µM, for inactives: max response, negative = inhibition, hits mostly inhibitors. 310,000 compounds, 3.5% hits; active means well fitted inhibition curve with a large enough effect; inconclusive means small, poorly fitted or top-dose-only effect, or another doubt; inactive means no such curve, though single readings can be large or run the other way;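 further: the enzyme is Sfp with the accession as filed and its product quenches rhodamine fluorescence; potency means the concentration at half of the fitted maximal effect; 0% = enzyme reaction without inhibitor and -100% = no enzyme wells; top concentration of the series not given in the record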
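Fluorescence-quenching assay: 15 nM Sfp-PPTase preincubated 15 min at room temperature with compound, then 5 uM rhodamine-CoA and 12.5 uM BHQ-2-labelled YbbR peptide added. Fluorescence (ex 525/em 598 nm) read at start and after 30 min; difference gives rate.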
PINK1 modulator – changes PINK1 expression; PINK1 immunofluorescence, high-content cytometry, 24 h; Potency, µM (doses to about 76.6 µM), for the others: at the highest dose activation (PINK1 increase), hits mostly activators; 410,000 compounds, 0.2% hits; AID 624263; active = well fitted activation curve with a large enough effect; inconclusive = small, poorly fitted or top-dose-only effect; inactive = flat fitted curve, though single readings scatter; cell line not stated here;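 further: potency means the concentration at half of the fitted maximal effect; % of control where 0% means no effect; nearly all actives have a fitted effect of over 65% in size; a mitochondrial uncoupler was the plate control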
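Compound titrations (5 concentrations, 24 h) on a stable cell line; DMSO and CCCP controls. Endpoint: fixed-cell PINK1 immunofluorescence with mitochondrial, cell and nuclear markers, scanned by microplate cytometer.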
TRPV1 PAM – human TRPV1 potentiation; Q8NER1; TRPV1-expressing cells, Fluo-8 calcium influx, capsaicin EC20 potentiation; host cell line not named in the record; control for the full effect not named in the record; potentiation, % at 8.33 µM; 320,000 compounds, 0.02% hits; active means potentiation above 80%; inconclusive means 30% to 80%; inactive means below 30%; further: 0% is about no effect
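TRPV1-expressing cells were cultured overnight at 35.5C and loaded with Fluo-8 calcium dye for 40 to 90 min at room temperature. After a 10 s baseline, compound was added and calcium influx was read kinetically for 3 min (ex 480/em 520 nm).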
* hit, by the source's call; ? = inconclusive; . = no result given; & = joins results of further samples; [ ] = dose if it differs, or a comment.

SMILES	TRPML1 blocker	Menin-MLL FL inh	ClpP mod	TRPML1 ag	Sfp PPTase inh	PINK1 modulator	TRPV1 PAM
Cc1ccc(C)c(S(=O)(=O)Nc2ccc(S(=O)(=O)Nc3onc(C)c3C)cc2)c1	18	4.8	0.0%	-0.5	4%	5.5%	11
CC(=O)NC(CCC(=O)O)C(=O)O (configuration not stated)	7	2.1	-2.9%	0.5	-1%	1.4%	.
Cc1nn(-c2ccccc2)c2c1C(c1ccc(F)cc1)C(C#N)=C(N)O2 (configuration not stated)	11	-1.0	-15%	0.1	-9%	0.0%	2
O=C(Nc1cccnc1)c1cc(-c2cccnc2)nc2ccc(Br)cc12	-5	-0.5	-0.3%	-0.8	14%	0.1%[38.3 µM]	-12
CCN1CCCC1CNCc1cccc(OC)c1OCc1ccc(F)cc1 (configuration not stated)	-13	0.5	0.5%	-0.4	16%	-0.9%	-3
Cc1c(NC(=O)CSCc2c(F)cccc2Cl)c(=O)n(-c2ccccc2)n1C	52	-1.7	.	0.2	18%	1.0%	4
O=C(Cn1cc(S(=O)(=O)Cc2ccccc2)c2ccccc21)Nc1ccccc1	1	1.3	-3.5%	-0.8	-9%	11%	-7
CCn1cc(C(=O)NCCN(C)C)c(=O)c2cc(F)c(N3CCN(C)CC3)cc21	-21	-0.7	-3.4%	-0.7	-2%	1.4%	20
COc1cc(CC(=O)OCC(=O)N2C(C)CCCC2C)cc(OC)c1OC (configuration not stated)	.	-5.2	0.0%	.	7%	0.5%	10
Cc1cccn2c(=O)c(/C=C(\C#N)C(N)=O)c(N3CCN(Cc4ccc5c(c4)OCO5)CC3)nc12	4	-0.9	-28%	0.6	12%	-0.8%	5
CC(C)(Oc1ccc(Cl)cc1)C(=O)Nc1cccc(S(=O)(=O)NC2=NCCC2)c1	3	.	3.5%	0.9	.	0.1%	3
CC(NC(=O)/C(C#N)=C/c1ccco1)c1ccccc1 (configuration not stated)	4	4.5	.	-0.4	50µM*	-0.7%	-6
COc1ccc(NC(=O)CN(C)C(=O)c2ccc(N3CCCCCC3)c([N+](=O)[O-])c2)cc1	2	.	-1.5%	0.5	.	-1.1%	-11
CCCCN(CC)C(=O)Cc1c(C(=O)O)[nH]c2ccc(Cl)cc12	-7	2.8	-29%	0.0	19%	-1.0%	-2
O=S(=O)(Nc1cccc(-c2ccc(N3CCCCC3)nn2)c1)c1ccc(Cl)s1	-6	.	-2.3%	-0.5	.	0.7%	.
O=C1CCCN1CC(CN1CCOCC1)Sc1nnnn1-c1ccccc1 (configuration not stated)	-7&17	3.3	-0.2%	-0.3&-0.8	-5%	-1.2%&0.7%	-4
CCOC(=O)CSc1nc(-c2ccc(OC)cc2)cc(C(F)(F)F)c1C#N	-5	.	4.4%	7.5	.	2.5%	.
COC(=O)CCN(C(=O)C1C2CC3CC(C2)CC1C3)c1ccccn1 (configuration not stated)	-5	0.9	0.9%	0.1	15%	-1.1%	2
O=[N+]([O-])CC(=Nc1ccc(F)cc1)N/N=C\c1oc(O)c2ccccc12	.	11	.	.	4%	.	0
CC(C)c1ccc(NS(=O)(=O)c2ccc3[nH]c(=O)ccc3c2)cc1	-6	.	1.3%	-0.1	.	1.1%	.
COCCNC(=O)C(=O)NNC(=O)COc1ccc(OC)cc1	-6	0.9	0.2%	0.3	-8%	1.0%	-7
CSc1ccccc1OCc1cc(C(=O)N2CCCC(C)C2)no1 (configuration not stated)	4	.	3.6%	-0.4	-4%	1.3%	-16
COc1ccc(CN2CCC(C(=O)NC(C)c3cccc4ccccc34)CC2)cc1 (configuration not stated)	.	.	-1.6%	-0.2	.	0.0%	.
O=C(CSc1nnc(-c2ccccc2O)o1)N1CCCCC1	13	3.5	.	0.6	5%	1.0%	-22
Cc1ccc(CNCc2cccn2-c2nnc(N3CCCC3)s2)cc1	-11	.	0.1%	0.7	.	-5.7%	.
CC(=O)NCCNc1ncnc2ccc(-c3c(C)noc3C)cc12	.	1.1	.	.	38%[activator]	1.3%	.
CN(Cc1ccccc1F)c1cc2c(c3c1ccn3C)C1CCC2O1 (configuration not stated)	.	.	-8.8%	-0.6	.	7.7%	.
CC(Oc1ccccc1F)C(=O)NNC(=O)CCNC(=O)c1ccccc1Cl (configuration not stated)	-13	.	1.7%	0.0	17%	-1.9%	-21
Cc1cccc(-c2nc(CSCC(=O)N3CCN(c4ccccn4)CC3)c(C)o2)c1	4	-4.4	-14%	1.0	3%	0.8%	?
CCCC(c1nnnn1C1CCCCC1)N1CCN(C2CCCC2)CC1 (configuration not stated)	7	-7.2	?	1.3	3%	0.8%	-7
Brc1cccc(OCCn2ccnc2)c1	32	6.8	-0.8%	0.2	56µM*	-0.5%	-10
NC(=O)c1cc(Cl)cn(-c2ccccc2)c1=O	-1	2.5	-5.9%	-0.5	10%	-0.9%	4
COC(=O)C1CCN(S(=O)(=O)c2cc3c4c(c2)CCN4C(=O)CC3)CC1	-9	.	1.6%	-0.6	.	0.1%	8
CCc1sc(C(=O)NCc2ccccc2)cc1C	22	0.7	.	-0.7	5%	0.6%	-5
O=C(N/N=C/c1cc(Cl)cc([N+](=O)[O-])c1O)c1cc(-c2ccccn2)nc2ccccc12	1	10	0.7%	0.3	0%	3.3%	-3
O=S(=O)(NCc1ccc2c(c1)OCO2)c1cccc(S(=O)(=O)N2CCOCC2)c1	32	1.6	1.0%	-0.1	5%	0.1%	-3

Four compounds already listed, arranged by length of the SMILES, lowest first:
SMILES	TRPML1 blocker	Menin-MLL FL inh	ClpP mod	TRPML1 ag	Sfp PPTase inh	PINK1 modulator	TRPV1 PAM
Brc1cccc(OCCn2ccnc2)c1	32	6.8	-0.8%	0.2	56µM*	-0.5%	-10
CCc1sc(C(=O)NCc2ccccc2)cc1C	22	0.7	.	-0.7	5%	0.6%	-5
CN(Cc1ccccc1F)c1cc2c(c3c1ccn3C)C1CCC2O1 (configuration not stated)	.	.	-8.8%	-0.6	.	7.7%	.
O=C(N/N=C/c1cc(Cl)cc([N+](=O)[O-])c1O)c1cc(-c2ccccn2)nc2ccccc12	1	10	0.7%	0.3	0%	3.3%	-3

Printed as active in Sfp PPTase inh, of those listed so far:
compound	TRPML1 blocker	Menin-MLL FL inh	Sfp PPTase inh	PINK1 modulator
CC(NC(=O)/C(C#N)=C/c1ccco1)c1ccccc1 (configuration not stated)	4	4.5	50µM*	-0.7%
Brc1cccc(OCCn2ccnc2)c1	32	6.8	56µM*	-0.5%

Next section.
SMILES	TRPML1 blocker	Menin-MLL FL inh	ClpP mod	TRPML1 ag	Sfp PPTase inh	PINK1 modulator	TRPV1 PAM
CN(Cc1ccccc1)S(=O)(=O)c1ccc(Cl)c(C(=O)NCc2ccncc2)c1	5	.	1.8%	-0.7	.	-0.1%	-5
Cc1cc(C)n(Cc2cccc(C(=O)N/N=C/c3cccnc3)c2)n1	2	1.5	0.7%	-0.3	12%	1.0%	3
O=C(Nc1cccc(-c2nc3ccccc3[nH]2)c1)c1ccccc1F	-12	.	-3.1%	2.9	.	-0.9%	.
Cc1cccc(C)c1-n1nnnc1SCC(=O)c1c(N)n(C2CC2)c(=O)[nH]c1=O	-8	.	1.9%	-0.7	.	8.9%	.
CNC(=O)c1oc(-c2ccccc2)nc1C	8	5.0	-1.3%	0.8	21%	-1.4%	2
O=C(c1ccc(COCC(F)(F)F)o1)N1CCCC1	-5	-1.6	.	0.8	21%	-0.4%	5
Cc1ccc(S(=O)(=O)Nc2ccc(-n3cnnn3)cc2)cc1	-14	.	-3.9%	-0.4	-4%	0.0%	-1
COC(C[C@@H]1O[C@H]1C(=O)[C@@H](C)OCc1ccccc1)OC	19	.	0.5%	-0.7	.	8.5%	.
CCOC(=O)C1CCN(C(=O)Nc2cccc(OC)c2)CC1	7	3.1	.	-0.2	6%	2.7%	-10
COc1ccc(NC(=O)CC2C(=O)N(c3ccc(OC)cc3)C(=O)N2C(C)C)cc1 (configuration not stated)	3	-0.2	0.4%	-0.5	23%	-1.6%[38.3 µM]	5
O=C(Cn1cnc2onc(-c3ccc(Cl)cc3)c2c1=O)Nc1ccc(F)cc1	28	.	1.3%	-0.6	.	1.6%	.
CCCC(=O)c1ccc(OC(=O)c2c(-c3ccccc3Cl)noc2C)cc1	3	.	-1.2%	1.8	.	0.9%	.
CCS(=O)(=O)c1ccc(O)c(NC(=O)COc2ccc(Br)cc2)c1	-11	0.7	.	0.5	25%	12%	4
CC(=O)c1ccc(NC(=O)C(C)OC(=O)CCCN=C2NS(=O)(=O)c3ccccc32)cc1 (configuration not stated)	6	.	-1.6%	-0.7	.	-1.4%	-24
O=C(CN1C(=O)NC(Cc2c[nH]c3ccccc23)C1=O)NCCc1ccccc1 (configuration not stated)	-3	-0.5	.	-0.5	9%	1.5%	-8
Cc1ccc(CN2CCN(/N=C\C=C\c3ccccc3)CC2)cc1	-19	-2.4	.	-0.6	-12%	11%	-9
CCSc1cnn(-c2ccccc2)c(=O)c1Cl	-15	.	0.7%	-1.0	.	4.2%	.
COc1ccc(NC(=O)N2CCc3c(sc4c3CCCC4)C2c2ccccc2OC)cc1 (configuration not stated)	9	.	-0.2%	-0.2	.	-0.1%	.
CN(Cc1ccno1)Cc1cn(Cc2ccccc2)nc1-c1ccc2c(c1)OCO2	-18	9.5	-0.9%	0.5	?	-1.7%	7
Cc1ccccc1-n1c(C)nnc1SCC(=O)N1CCc2ccccc2C1	30	1.8	-3.1%	0.2	-11%	-1.0%	-1
COc1ccc(-n2c(SCC(=O)O)nnc2-c2ccc(NC(=O)c3ccccc3)cc2)cc1	3	0.4	.	0.0	-4%	-1.1%	-7
CCN1CCN(c2cc(C)c3cc(NC(=S)N4CCN(c5ccccc5F)CC4)ccc3n2)CC1	50	0.3	.	-0.4	-6%	0.4%	-21
Cc1ccc(C(=O)N/C(=C\c2ccc(-c3ccccc3[N+](=O)[O-])o2)C(=O)NCCCN2CCOCC2)cc1	28	.	-2.3%	0.5	?	0.1%	10
CCNC(=O)c1ccccc1-c1nc(-c2ccccc2Cl)no1	5	-0.6	-0.7%	-1.1	0%	-1.3%	-3
